H5N1 CPE: MDCK cell protection from H5N1 avian flu; cytopathic effect, luminescence, 72 h; active compounds read high; no value below 0 was filed and about half of the inactive calls have no number; reference of the scale not given here; inhibition, % at 50 µM; 96,000 tested, 0.07% active; AID 740; in the data active means inhibition above about 25%
Numbers without * were called inactive; i = inactive. These rows are one share of the data (hit frequency here may not be typical).

# | Molecule | H5N1 CPE
1 | CCn1c(/C=C2/C(=O)N(C)c3ccccc32)nc2ccccc2c1=O | 1.6
2 | CS(=O)(=O)N(CC(=O)O)c1cc(Cl)cc(Cl)c1 | 1.2
3 | CCCCOC(=O)c1cccc(NC(=O)CCC(=O)O)c1 | 0.3
4 | C=C(Br)Cn1c(CC(C)C)nc2ccccc21 | i
5 | c1ccc(CCc2nn3c(Cn4nnc5ccccc54)nnc3s2)cc1 | 2.8
6 | COC(=O)n1c(=O)oc2ccccc21 | i
7 | CCOC(=O)c1oc2ccccc2c1CN1CCN(c2ccccc2)CC1 | 0.1
8 | Cc1cc(C)cc(N2C(=O)CC(n3nc(C)cc3C)C2=O)c1 (configuration not stated) | i
9 | FC(F)(F)c1ccc(N2CCN(c3cc(-c4ccccc4)nc4ncnn34)CC2)nc1 | 0.9
10 | CCOC(=O)Nc1ccc2c(c1)N(C(=O)CCN1CCN(C)CC1)c1ccccc1S2 | 0.6
11 | CCOCCCNS(=O)(=O)c1ccccc1 | i
12 | COc1ccccc1N1CCN(/N=C/C=C\c2ccco2)CC1 | 0.2
13 | CCOC(=O)c1cnc(SCc2ccccc2)nc1N | i
14 | O=C(CN1C(=O)C2C3C=CC(C3)C2C1=O)NCCc1ccccc1Cl (configuration not stated) | i
15 | Cc1cc(C)n(CC(O)COCc2ccco2)n1 (configuration not stated) | 1.7
16 | O=C1c2ccccc2CCC12N=NCC2c1ccc(Br)cc1 (configuration not stated) | 0.3
17 | COc1ccc(C(C)=O)cc1COC(=O)c1ccc(OCc2c(C)noc2C)cc1 | i
18 | CCOC(=O)c1ccc(NC2c3ccccc3C(=O)N2c2ccccn2)cc1 (configuration not stated) | i
19 | CCCCCOC(=O)NCC(O)c1ccccc1 (configuration not stated) | 0.8
20 | Cn1c(C(=O)O)c(CC(=O)NCc2cccnc2)c2ccccc21 | 0.5
21 | CS(=O)(=O)N1CCN(C(=O)c2ccc(Br)s2)CC1 | 0.3
22 | CS(=O)c1ccccc1-c1nc(-c2cc(C(F)(F)F)cc(C(F)(F)F)c2)no1 (configuration not stated) | i
23 | O=c1cnn(-c2ccccc2)c(-c2ccccc2)c1 | 0.2
24 | CN(C)C(C(=O)NC1CCCCC1)c1ccc(Cl)cc1 (configuration not stated) | 0.6
25 | COc1cccc(/C=N/NC(=O)c2cccc([N+](=O)[O-])c2)c1OS(=O)(=O)c1ccc(C)cc1 | i
26 | COC(=O)c1cn(NC(=O)c2cnccn2)c(=O)c2ccccc12 | 1.9
27 | Cc1csc(N(C(=O)c2cccc(S(=O)(=O)N3CCCC3)c2)c2ccccc2)n1 | i
28 | Cc1ccc(S(=O)(=O)N2CCCCC2)cc1C(=O)Nc1ncn[nH]1 | 0.4
29 | COc1ccc(NC(=O)CSC2=C(C#N)C(c3ccco3)C3=C(CCCC3=O)N2)c(OC)c1 (configuration not stated) | 1.1
30 | Cc1ccc(NC(=O)CCNS(=O)(=O)c2ccc3c(c2)oc(=O)n3C)cc1C | i
31 | COc1ccc(OC)c(NC(=O)c2cc3sccc3n2C)c1 | i
32 | O=C(Nc1cccnc1)Nc1ccccn1 | 7.1
33 | Cc1ccc(-c2nc(N(C)C3CCN(C)CC3)c3ccccc3n2)cc1 | i
34 | O=C(Cn1nc(C(F)F)cc1C1CC1)NCCC1=CCCCC1 | 1.2
35 | CCOC(=O)C1CCN(C2CC(=O)N(c3cccc(Cl)c3)C2=O)CC1 (configuration not stated) | 0.0
36 | N#Cc1cnn(-c2ccccc2)c1N | i
37 | COCCNC(=S)N/N=C/c1ccccc1C(=O)O | i
38 | O=[N+]([O-])c1ccc(N/N=C/c2c[nH]c3ccccc23)cc1 | i
39 | COCCN(C(=O)COc1ccccc1)c1nnc(-c2cccnc2)s1 | 1.6
40 | CS(=O)(=O)Nc1ccc(C(=O)N2CCCCC2)cc1 | 2.1
41 | Cc1cccc(CCNS(=O)(=O)c2ccc(S(=O)(=O)N3CCCCC3)cc2)c1 | i
42 | O=S(=O)(c1cccc(S(=O)(=O)N2CCC(Cc3ccccc3)CC2)c1)N1CCOCC1 | 0.7
43 | Cc1ccccc1C(=O)Nc1cccc(N)c1 | 1.1
44 | Cc1nn2c([nH]c(=O)c3ccccc32)c1C=O | 1.8
45 | O=C(C1CCN(S(=O)(=O)c2cccc3cccnc23)CC1)N1CCN(c2ccc(Cl)cc2)CC1 | i
46 | CC(C)NC(=O)c1cc2cc([N+](=O)[O-])ccc2s1 | 0.5
47 | O=C1CCc2cc(S(=O)(=O)NC(Cc3ccccc3)C(=O)NCC3CCCO3)ccc2N1 (configuration not stated) | 1.9
48 | CC1(C)Cc2c(cnn2-c2ccccc2)C(=O)/C1=N\NC(=O)c1ccccc1N | 1.4
49 | Cc1cc(/C=N/n2cnnc2)c(C)n1-c1cccc(Cl)c1 | i
50 | CC1(C)CC(=O)CC(=NCC(=O)O)C1 | 0.6
51 | Cc1cc(C(=O)N2CCCc3ccccc32)no1 | i
52 | CCCCn1c(O)c(C(CC)=NCCc2ccccc2)c(=O)[nH]c1=O | i
53 | O=C(NCc1cc(C(F)(F)F)cc(C(F)(F)F)c1)C12CN(Cc3ccccc3)CC1C(c1cccc([N+](=O)[O-])c1)=NO2 (configuration not stated) | 0.3
54 | O=C(Cc1ccc(Br)cc1)N1CCN(c2ccc(F)cc2)CC1 | i
55 | COc1ccccc1N1CCN(C(=O)CSc2ncccc2-c2nc3ccccc3[nH]2)CC1 | 1.4
56 | COc1ccc(Cn2nnnc2C(c2ccc(N(C)C)cc2)N2CCC(C)CC2)cc1 (configuration not stated) | i
57 | CC(C)c1cc(=O)oc2c3c4c(cc12)CCCN4CCC3 | 20.0
58 | CC(NC(=O)c1cccc(C(F)(F)F)c1)C1CCCO1 (configuration not stated) | 1.6
59 | CC(C)NC(=O)CN1CCN(c2ncccn2)CC1 | 0.5
60 | CCCCn1c(SCC(=O)Nc2cc(C)on2)nc2ccccc2c1=O | 1.6

Following part:
item	Molecule	H5N1 CPE
61	O=C(O)c1[nH]c2ccccc2c1CC(=O)N1CCOCC1	0.4
62	O=[P+](Cc1ccccc1)Cc1ccccc1	i
63	C=CCn1c(-c2ccc(OC)c(OC)c2)cs/c1=N\c1ccccn1	i
64	Cc1cc(Cl)c(S(=O)(=O)N2CCN(c3ccc(F)cc3)CC2)cc1OCC(=O)NC1CCCCC1	2.4
65	OCCOCCn1c(-c2ccccc2)nc(=S)c2c1CCCC2	i
66	N#Cc1ccccc1OCC(=O)Nc1c(C(=O)C2CC2)oc2ccccc12	i
67	COc1ccc(N2C(=O)CC(NC34CC5CC(CC(C5)C3)C4)C2=O)c(OC)c1 (configuration not stated)	0.3
68	CCCCc1ccc(Nc2ncnc3nc[nH]c23)cc1	i
69	COc1ccc(C(=O)NCC(=O)OCc2cccc(Br)c2)cc1	i
70	CCN(CC)C(=O)CSc1nc2nc(C)cc(C)c2c(=O)[nH]1	0.3
71	CCOc1ccccc1-n1c(SCC(=O)N(C(C)C)C(C)C)nnc1-c1cccnc1	0.8
72	Cc1n[nH]c(C)c1-c1nc2ccccc2[nH]1	0.4
73	CC(C)=CC1C(C(=O)Nc2ccc(Br)cn2)C1(C)C (configuration not stated)	i
74	C=C(C)COc1ccc2c(C)c(CC(=O)OC)c(=O)oc2c1C	i
75	ONC(=Nc1ccccc1)c1ccc(Cl)cc1	0.2
76	CC(C)N(Cc1ccccc1)S(=O)(=O)N(C)C	i
77	Cc1cc(Nc2ccc(C)c(F)c2)n2ncnc2n1	1.6
78	CCC(C)(C)n1nnnc1CN1CCSCC1	0.7
79	CN(CCCNC(=O)Cn1cc2c(n1)CCCC2)C1CCCCC1	i
80	O=C(CSc1nnc(Cc2ccccc2)n1-c1ccccc1)N1CCOCC1	i
81	O=C(CSc1nnc(-c2ccncc2)n1-c1ccc(F)cc1)NC(=O)NCc1ccco1	1.1
82	Cc1c(CCO)c(=O)n(-c2ccccc2)n1S(=O)(=O)c1c(Cl)cc(Cl)cc1Cl	1.6
83	CCOc1ccccc1NC(=O)CCC(=O)O	i
84	O=C(C1CCN(S(=O)(=O)N2CCOCC2)CC1)N1CCC2(CC1)OCCO2	0.3
85	CCSc1ncc(Cl)c(C(=O)Nc2ccc(S(=O)(=O)Nc3onc(C)c3C)cc2)n1	0.6
86	COc1ccc(Cc2nnc(NC(=O)C3CCCO3)s2)cc1OC (configuration not stated)	0.5
87	COC(=O)NCCOc1cc(C)ccc1C	i
88	O=C(Oc1cc(=O)oc2ccccc12)c1ccco1	0.4
89	CCOC(=O)N1CCN(C(=O)C2CCN(S(=O)(=O)c3ccc(C)cc3)CC2)CC1	i
90	Cc1cc(=O)[nH]c(SCC(=O)O)c1C#N	i
91	Cc1cccc(-c2nnc(-c3ccc(N)cc3)o2)c1	0.6
92	N#Cc1c(/N=C/C=C/c2ccccc2)sc2c1CCCC2	1.6
93	COC(=O)c1noc(-c2ccc(C)cc2)n1	i
94	CC(C)(C)c1ccc(OC(=O)Cn2c(C(F)(F)F)nc3ccccc32)cc1	i
95	O=C(C1CCCN(c2nnc(-n3cccc3)s2)C1)N1CCN(c2ccccc2)CC1 (configuration not stated)	0.6
96	Nn1c(SCC(=O)Nc2ccccc2)nnc1-c1cccnc1	i
97	CCCN1CCN(C(c2cc3cc4c(cc3[nH]c2=O)OCO4)c2nnnn2C(C)(C)C)CC1 (configuration not stated)	1.6
98	OCC1(c2cc(C(F)(F)F)n[nH]2)CCCCC1	0.4
99	O=c1cc(N2CCc3ccccc3C2)[nH]c(=O)n1-c1ccc(Br)cc1	0.3
100	CCOC(=O)C1=C(C)SC2=NS(=O)(=O)CCN21	0.1
101	c1ccc(-c2cccc(-c3ccccn3)n2)nc1	i
102	CN(CCOc1ccccc1)S(=O)(=O)c1ccc2oc3ccccc3c2c1	1.1
103	O=C(NCCn1cc(SCC(=O)N2CCOCC2)c2ccccc21)c1ccccc1	0.9
104	COc1ccc(C(C#N)Nc2ccc(C)cc2)cc1 (configuration not stated)	i
105	CN1CCN(P(=O)(c2ccccc2)c2nc3ccccc3s2)CC1 (configuration not stated)	0.3
106	Cc1ccccc1-n1nc(C)c2cc(C(=O)N3CCN(S(=O)(=O)c4ccc(Cl)cc4)CC3)sc21	0.8
107	Oc1ccc(-c2[nH]nc(-c3ccccc3)c2-c2nc3ccccc3[nH]2)cc1	i
108	Cc1nnsc1-c1nc2ccccc2[nH]1	i
109	CCN(CC)c1ccc2c(c1)C(=O)N(C)C2=O	1.5
110	Cc1nn(CCC(=O)NNC(=S)NCC(C)C)c(C)c1Br	0.6
111	CCN(CC)S(=O)(=O)c1ccc(Nc2ccc(-c3ccc4c(c3)OCCO4)nn2)cc1	i
112	O=C(O)Cc1ccc(C(=O)c2ccc(Cl)cc2)s1	i
113	Cc1c(C)n(C(=O)CN2CCC(C(N)=O)CC2)c2ccccc12	1.2
114	O=C(CSc1nnc2ccccn12)NCCN1C(=O)CSC1=O	i
115	O=C(CCN1C(=O)C2CC=C(Cl)CC2C1=O)N1CCCCC1 (configuration not stated)	0.7
116	NC(N)=Nc1nc(CCN2C(=O)c3ccccc3C2=O)cs1	i
117	CCOc1ccc(OCc2ccc(C(=O)NCc3ccncc3)o2)cc1	i
118	CCCOc1cccc(OCCSc2nc(C)cc(=O)[nH]2)c1	1.5
119	O=C1c2ccccc2NC(c2ccc3c(c2)OCCO3)N1c1ccc2c(c1)OCCO2 (configuration not stated)	i
120	CCN1CCN(C(c2ccccc2F)c2nnnn2Cc2ccc3c(c2)OCO3)CC1 (configuration not stated)	i

Continued.
item	Molecule	H5N1 CPE
121	Cc1ccc(C(O)(c2ccccc2)c2ccccc2C(C)N(C)C)c(C)c1 (configuration not stated)	i
122	CC(C)NCC(O)COCc1ccc(Cl)cc1 (configuration not stated)	i
123	Cc1ccc(-n2c(O)c(C=NC3CCCC3)c(=O)[nH]c2=O)c(C)c1	i
124	Cc1cc(C)nc(N2CCN(CC(=O)NCc3ccccc3)CC2)n1	i
125	CC(=O)c1ccc(N2CCN(C(=O)c3ccco3)CC2)c(F)c1	i
126	CCN(CC)c1ccc(C=Nc2ccc(N(C)C)cc2)c(O)c1	i
127	CCCCc1cc2c(c(NC(C)=O)n1)c(=O)oc1ccccc12	0.4
128	NC(=O)CCn1nc(-c2ccc(Cl)cc2)c2ccccc2c1=O	0.1
129	CSc1n[nH]c(NCc2cccs2)n1	0.1
130	COc1ccc(NC(=O)CN2CCOCC2)cc1	i
131	O=C(CSc1nnc(Cc2ccccc2)n1C1CCCCC1)N1CCOCC1	2.2
132	COc1cc(/C=N/NC(=O)c2nc(C)cc(C)n2)ccc1O	i
133	Cc1cc2cc(CN(Cc3ccc4c(c3)OCO4)Cc3nnnn3C3CCCC3)c(=O)[nH]c2cc1C	0.3
134	COc1ccc(-n2c(Cc3cccn3C)nnc2SCC(=O)Nc2cc(C)cc(C)c2)cc1	i
135	O=C(COc1ccc(Cl)cc1)N1CCN(c2ccc([N+](=O)[O-])c(N3CCCCC3)c2)CC1	0.6
136	CC(=O)OCC(OC(C)=O)C(OC(C)=O)C(OC(C)=O)C(=O)Nc1ccccc1C (configuration not stated)	i
137	CSC(=NC#N)N1CCN(c2cccc(Cl)c2)CC1	i
138	COC(=O)c1ccc(CSc2nnc(NC(C)C)s2)cc1	i
139	CCN(CC)CC(C)(C)NS(=O)(=O)c1ccc(Cl)cc1	0.6
140	Cc1nnc(SC(C)C(=O)NCC2CCCO2)n1-c1ccccc1 (configuration not stated)	i
141	COCC(=O)Nc1ccc(Nc2ccccc2)cc1	0.1
142	COc1cc(C(=O)OC(C)C(=O)Nc2ccc3c(c2)OCO3)ccc1OCc1c(C)noc1C (configuration not stated)	i
